Screens (PubChem BioAssay)
CtBP-E1A blk: blocks the CtBP interaction with E1A; AlphaScreen GST-E1A/His-CtBP binding, 1536-well; stronger effect = lower value; control for the full effect not named in the record; activity change, % (no concentration beside the values); 340,000 tested, 0.49% active; AID 651724; in the data active means activity change below about -65%; inconclusive means about -30% to -65%; inactive means above about -30%; further: on the % scale 0 is the no-effect control and ±100 the full control effect; compound concentration not given in the record
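GST-E1A and His-tagged CtBP (125 nM each as 5X stock) were preincubated with pin-transferred compound for 2 h at 37 °C in the dark, then glutathione donor and nickel acceptor beads were added for 1 h before AlphaScreen reading.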
TRPML1 inh: human mucolipin-1 channel inhibition. 390,000 tested, 0.02% active. TRPML1-inducible cells, Ca2+ dye fluorescence, FDSS; stronger effect = lower value; inhibition of EC80 agonist-evoked calcium signal. activity change, negative = inhibition, % (no concentration beside the values); in the data active means activity change below about -50%; inconclusive means about -30% to -50%; inactive means above about -30%;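 further: stimulus is agonist 54-4 at its EC80 concentration; on the % scale 0 is the no-effect control and ±100 the full control effect; compound concentration not given in the record; the text of the record puts the active cut at -80%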
Target sequence (Q9GZU1 whole entry, looked up): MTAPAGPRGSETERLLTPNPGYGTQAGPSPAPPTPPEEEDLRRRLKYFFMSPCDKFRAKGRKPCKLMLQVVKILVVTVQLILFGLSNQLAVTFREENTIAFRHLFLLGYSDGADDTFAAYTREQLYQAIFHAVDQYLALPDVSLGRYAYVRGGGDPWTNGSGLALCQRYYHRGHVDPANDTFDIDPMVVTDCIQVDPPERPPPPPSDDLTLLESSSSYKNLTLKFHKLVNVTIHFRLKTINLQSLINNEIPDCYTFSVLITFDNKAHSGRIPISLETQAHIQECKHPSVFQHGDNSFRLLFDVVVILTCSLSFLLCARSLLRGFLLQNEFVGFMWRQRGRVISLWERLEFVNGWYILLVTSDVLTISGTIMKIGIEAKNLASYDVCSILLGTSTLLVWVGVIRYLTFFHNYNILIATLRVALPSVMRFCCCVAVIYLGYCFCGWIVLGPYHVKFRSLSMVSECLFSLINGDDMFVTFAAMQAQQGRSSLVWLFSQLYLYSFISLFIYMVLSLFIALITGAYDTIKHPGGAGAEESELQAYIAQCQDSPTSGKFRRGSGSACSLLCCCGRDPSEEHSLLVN
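Calcium fluorescence in TRPML1-DL cells induced overnight with Tet: a 110 s read after compound pin addition, then a 110 s antagonist read after challenge with 54-4 at 4 uM final (EC80).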
TRPML1 ag: agonists of human TRPML1 channel | TRPML1-expressing cells, Ca2+ dye fluorescence, FDSS; host cell line not named in the record; reference of the full effect not given here | activation, % (no concentration beside the values) | 410,000 tested, 0.12% active | AID 624414; in the data active = activation above about 50%; inconclusive = about 30% to 50%; inactive = below about 30%; further: 0% is about no effect; the text of the record puts the active cut at 80%
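TRPML1-DL cells, Tet-induced overnight (~16 h, 37 degrees C), loaded 45-90 min at room temperature with Ca8 no-wash calcium dye plus quencher. FDSS fluorescence: 10 s baseline, compound pin-transfer, 110 s agonist read, then EC80 54-4 (4uM final) and 110 s antagonist read.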
Six1-Eya2 blk: Six1/Eya2 interaction inhibition | AlphaScreen GST-Six1/His-Eya2 binding, biochemical; stronger effect = lower value; control for the full effect not named in the record | 360,000 tested, 0.56% active | activity change, % (no concentration beside the values); in the data active = activity change below about -65%; inconclusive = about -30% to -65%; inactive = above about -30%; further: on the % scale 0 is the no-effect control and ±100 the full control effect; compound concentration not given in the record
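Homogeneous AlphaScreen proximity assay pairing GST-Six1 with His-tagged Eya2 (added as 5X mix: 250 nM and 500 nM) in 50 mM Tris pH 8.0, 300 mM NaCl, 1 mM TCEP. Glutathione donor and nickel acceptor beads; 1 h, 37 °C, dark.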
PINK1 modulator: changes PINK1 expression | PINK1 immunofluorescence, high-content cytometry, 24 h | Potency, µM (titrated, usually from 76.6 µM), for inactives: at the highest dose activation (PINK1 increase), most hits filed as activators | 410,000 tested, 0.2% active | AID 624263; active = well fitted activation curve with a large enough effect; inconclusive = small, poorly fitted or top-dose-only effect; inactive = flat fitted curve, though single readings scatter; cell line not stated here;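 further: potency means the concentration at half of the fitted maximal effect; % of control where 0% means no effect; nearly all actives have a fitted effect of over 65% in size; a mitochondrial uncoupler was the plate control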
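Stable cell line, 250 cells/well, 12 h attachment; compounds pinned at 5 concentrations, 24 h; CCCP control. Fixed with nuclear dye, primary antibodies 12 h at 10 degrees C, secondary plus cell stain; laser-scanning cytometer read.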
D2 ag: human D2 receptor agonism in beta-arrestin assay; 360,000 tested, 0.084% active; P14416; DiscoveRx PathHunter D2 beta-arrestin, luminescence, 90 min; 100% = 57 uM dopamine signal; activation, % (test concentration not listed); in the data active = activation above about 40%; inconclusive = about 15% to 40%; inactive = below about 15%; further: compound concentration not given in the record; the text of the record calls up to 30% inactive
Target sequence (P14416 whole entry, looked up): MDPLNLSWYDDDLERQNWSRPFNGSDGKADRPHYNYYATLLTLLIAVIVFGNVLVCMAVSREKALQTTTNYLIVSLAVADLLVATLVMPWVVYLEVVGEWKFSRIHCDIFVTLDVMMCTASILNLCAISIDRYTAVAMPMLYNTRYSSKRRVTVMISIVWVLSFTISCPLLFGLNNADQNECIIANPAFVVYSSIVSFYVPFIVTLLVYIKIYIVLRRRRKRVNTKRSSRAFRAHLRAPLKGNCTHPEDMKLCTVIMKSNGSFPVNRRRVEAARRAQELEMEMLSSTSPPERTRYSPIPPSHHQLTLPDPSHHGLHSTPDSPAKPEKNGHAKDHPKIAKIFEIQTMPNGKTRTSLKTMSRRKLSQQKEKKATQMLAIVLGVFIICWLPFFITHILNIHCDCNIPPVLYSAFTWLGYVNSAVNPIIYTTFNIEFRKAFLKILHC
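DiscoveRx PathHunter D2 beta-arrestin cells (2,100/well) attached overnight, then compound-stimulated 90 min at 37 C in HBSS/10 mM HEPES/0.1% Tween-20 buffer; beta-galactosidase complementation read by luminescence after 1 h at ambient temperature. Dopamine 57 uM final (EC100) as control.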
* marks the source's active call; other numbers are inactive results; u = inconclusive; x = not tested or not shown; & = joins results of further samples; [ ] = remark or other dose.

SMILES	CtBP-E1A blk	TRPML1 inh	TRPML1 ag	Six1-Eya2 blk	PINK1 modulator	D2 ag
Cc1cc(C)nc(N(C#N)Cc2ccc(Cl)cc2)n1	8	28	2.7	9	-0.8%	0.5
CC1CCN(C(=O)CSc2nnc(CNC(=O)c3ccc(S(=O)(=O)N(C)C)cc3)o2)CC1	-6	-3	-0.4	0	1.5%	-3.0
CCC(C)(c1ccc(C=O)s1)c1ccc(C=O)s1	-28	3	0.5	-3	u	-2.0
Cc1ccc(C(=O)N/C(=C\c2ccc(Cl)cc2)C(=O)NCCN2CCOCC2)cc1	-10	-1	0.1	-9	0.0%	-1.5
CCc1n[nH]c(=S)n1/N=C/c1cccc2ccccc12	0	-7	0.5	-8	-0.7%	7.1
O=C(N/N=C\c1ccc(CNS(=O)(=O)c2ccc(Cl)cc2)o1)C(=O)Nc1ccc(Oc2ccccc2)cc1	2	4	-0.2	-13	3.3%	-1.1
COc1ccc(S(=O)CC(=O)Nc2ccccc2Cl)cc1 (configuration not stated)	0	-2	-0.1	2	0.3%	7.7
CCC1=C(OC(=O)N(CC)CC)N2C(=O)OC(=NCC3CC3)[C@]2(C)[C@H]2C1=CC[C@H]1C(=O)N(CC)C(=O)[C@H]12	3	22	3.7	7	-1.8%	-3.7
COc1cc(Cl)ccc1OC1(C)CCN(Cc2ccccc2OC(F)F)C1 (configuration not stated)	9	x	-0.6	-7	u	-5.0
Clc1ccc(C2=CSC3=Nc4cccc5cccc(c45)N23)cc1	-3	6	0.2	-16	-1.8%	4.1
CC(=O)Nc1ccc(S(=O)(=O)Nc2c(C)n(C)n(-c3ccccc3)c2=O)cc1	0	-2	1.3	6	1.1%	-2.1
O=C1N[C@@H](Cc2ccccc2)C(=O)N1CCN1CCOCC1	1	-14	0.1	0	1.2%[38.3 µM]	-3.5
CN1C=CC(=C[N+](=O)[O-])N(C)C1=O	0	x	-0.4	2	-0.2%	-1.8
C=CCn1c(SCC(=O)c2cc(C)n(Cc3cccs3)c2C)nnc1-c1ccncc1	-2	-4	0.4	-6	11%	-0.3
CCC12CC3CC(C1)CC(C(=O)NNC(N)=O)(C3)C2	10	-16	0.5	-2	2.6%	0.5
O=C1Nc2ccc([N+](=O)[O-])cc2C1(O)N1CCCCCC1 (configuration not stated)	0	5	0.4	-1	2.4%[38.3 µM]	-2.3
COc1cc(NC(=O)C(Cc2ccccc2)NS(=O)(=O)c2cccs2)cc(OC)c1 (configuration not stated)	x	5	2.8	x	-4.3%	x
NC(=O)c1ccc[n+](CC(=O)NCc2ccc(Cl)cc2)c1	1	5	-0.3	1	-1.0%	1.3
Cn1c(-c2ccccc2)cnc1NCc1ccc(F)cc1	x	x	x	0	-0.1%	2.1
CCSc1ncc(Cl)c(C(=O)Nc2ccc(S(=O)(=O)Nc3ncccn3)cc2)n1	2	7&7	-0.4&-0.1	10	-1.1%&1.4%	-3.8
CCCc1cc(C(=O)Cc2ccccn2)c(O)cc1O	x	-9	-0.5	1	2.7%	-6.7
CCc1ccc2nc(N(Cc3cccnc3)C(=O)c3cccs3)sc2c1	x	47	4.2	x	11%	x
N#C/C(=C(/O)c1ccc(C(=O)c2ccccc2)cc1)c1nc2ccccc2[nH]1	-24	10	2.0	12	3.3%	-0.9
Cc1ccc(CS(=O)(=O)CCC(=O)NCCC2=CCCCC2)cc1	-12	18	-1.3	-7	0.3%	-0.8
COc1ccccc1C(=O)NCCC(=O)NC(C)c1ccc(-n2ccnc2)cc1 (configuration not stated)	0	-10	-0.2	0	-1.0%	-2.7
CC[n+]1c(/C=C/C=C/N(C(C)=O)c2ccccc2)sc2ccccc21	4	-10	0.4	0	u	-7.1
COc1ccc(CCNC(=O)CN(C)S(=O)(=O)c2ccc(OC)cc2)cc1	-3	-12	0.1	-6	0.0%	5.5
COc1ccc(NC(=O)c2ccco2)cc1NC(=O)c1ccc(Br)o1	-9	-8	3.8	-6	-3.6%[38.3 µM]	-3.1
CC1Cc2ccccc2N1C(=O)COC(=O)c1ccc(Cl)c(S(=O)(=O)N2CCOCC2)c1 (configuration not stated)	-29	5	-0.3	-10	0.0%	1.4
CSc1ccc(CN2C(=O)C(C)Oc3c(C(C)=O)cccc32)cc1 (configuration not stated)	6	x	-0.5	3	0.7%	6.1
CCOc1ccc(NC(=O)C/C(C)=N/NC(=O)Cc2ccc(Cl)cc2)cc1	6	44	2.2	-1	-0.3%	-0.9
CCN(CC)S(=O)(=O)c1ccc(-c2nnc(SCC(=O)Nc3nc(C)cs3)o2)cc1	18	-1	0.0	1	9.2%[38.3 µM]	1.4
NC(=O)[C@H]1CC2(CC(c3cccc(NC(=O)CC(c4ccccc4)c4ccccc4)c3)=NO2)CN1C(=O)CC(c1ccccc1)c1ccccc1 (some centres not stated)	0	12	0.1	-5	-0.2%	1.0
CN(C)CCOC(=O)C1(c2ccccc2)CCCC1	1	40	-0.1	7	1.2%	-3.5
Cc1cc(=O)oc2cc(OCC(O)Cn3ccnc3)ccc12 (configuration not stated)	0	-7	-0.2	-5	0.7%	-1.8
CCOc1ccc(CCNC(=O)C2CC(=O)N(CCc3ccc(OC)c(OC)c3)C2)cc1OCC (configuration not stated)	0	49&18	0.1&1.1	11	9.5%&1.5%	-4.7
COc1ccc(C(CNC(=O)c2cccc(N(C)C)c2)N2CCCC2)cc1 (configuration not stated)	-22	0	-0.7	-30	-2.6%	-3.0
Cc1ccc(N(CC(=O)N/N=C/c2cccc(Br)c2)S(C)(=O)=O)cc1	9	2	2.4	1	12%	-5.9
Cc1ccc(NCC(=O)c2ccc(C)cc2)cc1	x	x	x	-5	1.2%	-20
CCc1c(C#N)c(SCCC(=O)Nc2ccc(C)cc2)nc2c1C(=O)CC(C)(C)C2	-2	2	0.6	5	-0.3%	-2.3

Given field by field: part of the list above.
NC(=O)[C@H]1CC2(CC(c3cccc(NC(=O)CC(c4ccccc4)c4ccccc4)c3)=NO2)CN1C(=O)CC(c1ccccc1)c1ccccc1 (some centres not stated)
  CtBP-E1A blk: 0 | TRPML1 inh: 12 | TRPML1 ag: 0.1 | Six1-Eya2 blk: -5 | PINK1 modulator: -0.2% | D2 ag: 1.0

CCOc1ccc(CCNC(=O)C2CC(=O)N(CCc3ccc(OC)c(OC)c3)C2)cc1OCC (configuration not stated)
  CtBP-E1A blk: 0 | TRPML1 inh: 49&18 | TRPML1 ag: 0.1&1.1 | Six1-Eya2 blk: 11 | PINK1 modulator: 9.5%&1.5% | D2 ag: -4.7

Further compounds follow.
SMILES	CtBP-E1A blk	TRPML1 inh	TRPML1 ag	Six1-Eya2 blk	PINK1 modulator	D2 ag
CCOC(=O)N1CCC2(CC1)OC(=O)C(C)=C2C(=O)NCc1ccccc1OC	x	35	1.4	x	-0.2%	x
Cn1c(=O)c2c(O)c([N+](=O)[O-])c(=O)n(C)c2n(C)c1=O	-24	12	-0.3	-21	0.5%	-0.8
S=c1[nH]c2ccc(Cl)cc2[nH]1	3	20	-0.1	0	0.0%	-3.5
Cc1nnc(SCC(=O)N2CCCCCC2)n(N)c1=O	-19	-7	0.3	11	-2.7%	-3.7
Cc1ccc(NS(=O)(=O)c2cc(-c3cc(C)no3)ccc2C)c(Cl)c1	x	-17	13	x	8.0%	x
Cn1ncc2cc(NC(=S)NC(=O)c3ccccc3)ccc21	-17	4	0.6	-4	-0.3%	0.9
Cc1ccc(C(=O)NCC(=O)NCC(c2cccs2)N(C)C)cc1C (configuration not stated)	-7	-4	1.2	5	0.1%	-0.9
CCOc1ccc(/C=C(\C#N)C(=O)Nc2sc3c(c2C(=O)OC)CCC3)cc1OC	x	-15	-0.3	x	u	x
CCc1ccc(-n2c(C)nc3cc(C(=O)NCCc4ccccc4)ccc32)cc1	x	17	1.6	x	12%	x
O=C(CNC(=O)c1ccc(Br)o1)NC1CCCCCC1	11	-8	1.6	-3	-0.6%	-4.1
COc1ccc(C(CNC(=O)COc2ccc(-c3ccccc3)cc2)N2CCOCC2)cc1 (configuration not stated)	-3	x	x	-6	-0.6%	-5.9
CCC(C)C(CO)NC(=O)/C=C/[C@H]1O[C@@H](n2cnc3c(NC(=O)c4ccccc4)ncnc32)[C@H](O)[C@@H]1O (some centres not stated)	-19	-3	2.2	-67*	3.1%	-5.0
Cc1cccc(-c2nc(C)c(CCNC(=O)C(=O)Nc3cccc(Cl)c3C)s2)c1	x	-17	1.2	x	3.9%	x
CCCCn1c(N)c(N(C)C(=O)c2cc3c(F)cccc3s2)c(=O)[nH]c1=O	3	-5	-0.1	-12	-0.6%	4.5
COCCNc1oc(-c2ccccc2Cl)nc1C#N	-1	-21	-0.9	-11	2.6%	-3.2
CCOC(=O)CNC(=O)Cn1cnc2c(nnn2-c2cccc(OC)c2)c1=O	-1	-14	-0.4	0	0.6%	-1.6
Cc1ccc(S(=O)(=O)N(C)CC(=O)N/N=C/c2ccc(C)o2)cc1	-19	-6	2.0	-2	-1.4%	5.4
CCCc1cc(=O)[nH]c(SCC)n1	10	u	0.0	5	x	0.2
Cc1ccc(Cn2c(C(=O)O)c(CNCCc3cccs3)c3ccc(C)cc32)cc1	x	-2	-0.4	x	-1.4%	x
CC(NC(=O)c1ccncc1)C(c1cccs1)N1CCOCC1 (configuration not stated)	-9	1	-0.4	-2	x	-1.4
CC(=O)N1N=C(c2ccco2)CC1c1cc2cc(C)ccc2nc1Cl (configuration not stated)	8	-9	0.9	-2	24%	-3.3
COc1cccc(CNC(=S)Nc2cc(C)ccc2C)c1	-6	-6	-0.1	-2	-0.2%	-3.8
CC(=O)Nc1ccc(-c2csc(Nc3cc(C)ccn3)n2)cc1	-12	2	-0.6	-9	0.3%	0.0
CCOC(=O)c1sc2nc(CC(=O)OC)nc(NCCN3CCOCC3)c2c1C	-5	-10	1.0	-13	3.3%	-6.5
COC(=O)[C@@]12CCCCN1[C@H](c1ccc(-c3ccccc3)c(OC)c1)[C@H]1C(=O)N(C)C(=O)[C@H]12	x	-1	-0.4	0	3.0%	1.0
COCCN(C(=O)c1cc2c(s1)CCCCC2)c1c(N)n(Cc2ccccc2)c(=O)[nH]c1=O	1	-1	-0.2	3	1.0%	-1.5
Nc1c(C(=O)OCC(=O)NCc2ccccc2)[nH]c(=O)[nH]c1=O	3	11	0.5	-3	0.4%	-1.2
CC(C)C[C@@H]1CN=C(N)N1C[C@@H]1CCCN1C[C@@H](C(C)C)N1C[C@@H](Cc2ccccc2)N(CCc2ccc(Cl)c(Cl)c2)C1=N	-23	11	0.5	3	1.3%	-4.1
COC(=O)c1cc(Br)c(=O)n(-c2ccc(OC)cc2)c1	2	10	1.7	10	-1.8%	-4.1
O=C(NCC1CCCO1)c1ccc(COc2ccc(F)cc2)o1 (configuration not stated)	11	12	-0.1	1	-2.9%[38.3 µM]	-0.1
Cn1c(Cn2c(=O)sc3ccccc32)nnc1SCC(=O)Nc1ccc(Cl)cc1	-3	7	2.1	0	13%	-0.1
